Screening results: PubChem BioAssay, several laboratories
MT1-MMP act inh: MT1-MMP (human) activation inhibition; P50281; HT1080 RFP-PRO-GFP cells, GFP/RFP ratio fluorescence, overnight; percent of plate control window, DMSO zero; GFP/RFP ratio change, % at 20 µM; actives 0.061% (n = 360,000); AID 651647;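 active = GFP/RFP ratio change of at least 30% with cell ATP level not reduced by more than half and red fluorescence within 50% of control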; also: strong numbers were not always called active
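Test system: HT1080 cells expressing an RFP-PRO-GFP fluorescent reporter construct / Compound dosing: single-point 20 µM compound, 1% DMSO / Schedule: cells overnight before dosing, compound overnight, 37 °C, 5% CO2 / Evaluation: GFP/RFP fluorescence ratio / Control set: DMSO and RFP-L50D-GFP cell wells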
Rce1 inhib: yeast Ras-converting enzyme inhibition; Q03530; yeast membranes, quenched prenylated peptide cleavage fluorescence; actives 0.27% (n = 290,000); AID 2563; calls only;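 active = fall in fluorescence gain of 50% or more versus controls, with final raw signal at or below 3038400; inconclusive = same 50% fall but final raw signal above 3038400; inactive = fall in fluorescence gain under 50%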;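 also: plate controls were neutral control wells for no effect and wells lacking membranes for full effect; tested at 10 µM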
Target sequence (Q03530 whole entry, looked up): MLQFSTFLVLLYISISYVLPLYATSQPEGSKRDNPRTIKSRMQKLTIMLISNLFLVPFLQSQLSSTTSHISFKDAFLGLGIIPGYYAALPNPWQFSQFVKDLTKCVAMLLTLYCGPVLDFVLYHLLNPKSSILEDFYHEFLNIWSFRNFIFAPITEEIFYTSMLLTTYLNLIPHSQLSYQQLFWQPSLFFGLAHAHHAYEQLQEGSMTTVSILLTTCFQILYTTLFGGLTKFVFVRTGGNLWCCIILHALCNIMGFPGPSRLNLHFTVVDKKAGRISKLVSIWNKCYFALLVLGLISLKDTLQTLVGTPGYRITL
PABP FP inh: blocks human PABP binding to poly(A) RNA; inhibition, % at 35 µM; fluorescence polarization; actives 1% (n = 290,000);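 active = 50% or more with normal probe brightness, or confirmed in later tests; inconclusive = above 50% with abnormal brightness, or retests that disagree; inactive = below 50% or failed in later tests; about a fifth of its hits are not listed in these tables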;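 also: calls also rest on retests at 20 µM and on dose response follow-up; controls were probe without protein and protein plus probe with vehicle; some compounds called inactive have numbers as strong as hits; many hits fall short of the cut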
Target sequence (P11940 whole entry, looked up): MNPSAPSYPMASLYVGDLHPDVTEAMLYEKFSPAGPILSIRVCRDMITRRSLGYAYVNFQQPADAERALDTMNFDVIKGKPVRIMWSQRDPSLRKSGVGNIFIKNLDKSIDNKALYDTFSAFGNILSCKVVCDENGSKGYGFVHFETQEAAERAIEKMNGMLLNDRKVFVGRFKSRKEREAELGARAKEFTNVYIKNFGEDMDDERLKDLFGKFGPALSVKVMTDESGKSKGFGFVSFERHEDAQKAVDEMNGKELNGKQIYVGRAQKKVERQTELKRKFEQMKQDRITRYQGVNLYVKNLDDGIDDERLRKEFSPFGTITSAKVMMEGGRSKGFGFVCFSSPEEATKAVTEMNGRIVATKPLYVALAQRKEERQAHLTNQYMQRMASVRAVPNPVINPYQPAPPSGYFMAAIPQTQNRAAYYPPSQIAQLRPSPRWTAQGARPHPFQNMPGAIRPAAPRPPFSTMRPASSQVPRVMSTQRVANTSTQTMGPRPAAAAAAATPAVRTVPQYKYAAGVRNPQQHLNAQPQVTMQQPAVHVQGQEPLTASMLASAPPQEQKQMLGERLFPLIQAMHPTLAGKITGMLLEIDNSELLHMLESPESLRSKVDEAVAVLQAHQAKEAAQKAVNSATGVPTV
eIF4H FP inh: inhibitors of RNA binding by human eIF4H | inhibition, % at 35 µM | actives 0.94% (n = 290,000) | eIF4H fluorescence polarization binding assay | AID 2012 | Q15056;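 active = 50% or more with normal probe brightness, or confirmed in later tests; inconclusive = above 50% with abnormal brightness, or retests that disagree; inactive = below 50% or failed in later tests; about a fifth of its hits are not listed in these tables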;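 also: calls also rest on retests at 20 µM and on dose response follow-up; 0% = protein and probe with vehicle and 100% = probe without protein; strong numbers were not always called active; many hits fall short of the cut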
UUG fidelity: yeast start codon fidelity modulation. actives 0.13% (n = 350,000). activity score, % at 18.7 µM. S. cerevisiae UUG-firefly luciferase reporter, luminescence/redox ratio;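 active = replicate mean at a twofold rise or more, about +100% in these data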;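 also: firefly luciferase made from a UUG start codon reports start codon fidelity; reporter light over untreated wells divided by growth signal over untreated wells; some hits fall short of that in this replicate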
CSC inhib: blocks cancer stem cells; cancer stem cell-like cells viability, luminescence; inhibition, % at 7.5 µM; actives 1.1% (n = 300,000); AID 2717;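 active = mean at 75% or more and at least half the replicates too; inconclusive = mean and replicates disagree; tested in HMLE shEcad cells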;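 also: 0% = median of negative and 100% = median of positive control wells; the first replicate is given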
Env fusion inh: blocks HIV Env-driven cell-cell fusion; inhibition, % at 12.3 µM; AID 651610; HeLa-JRFL Env/CEM21 cell fusion, luciferase; actives 1.1% (n = 360,000);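 active = mean replicate inhibition score of at least 50 and every replicate individually at or above 50; inconclusive = only one of the two criteria met; inactive = mean below 50 and not all replicates reaching 50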;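 also: 0% = plate neutral controls and 100% = maraviroc near 300 nM; one replicate is shown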
eIF4H FP inh retest: second read-out of eIF4H FP inh, no call of its own (marks repeat the call); inhibition, %; compound at 20 µM; confirmation average;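 mean of two retest wells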
PABP FP inh retest: also measured in PABP FP inh; calls as there; inhibition, %; compound at 20 µM; confirmation repeats;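 mean of two retest wells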
MT1-MMP act inh RFP: also measured in MT1-MMP act inh; calls as there; RFP signal change, %; measured here: RFP expression control read;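 0 = vehicle wells; hits needed this value within 50% of zero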
Starred values were filed as active, the others as inactive; i = inactive; u = inconclusive; x = not tested or not shown; + = active, no number.

SMILES	MT1-MMP act inh	MT1-MMP act inh RFP	Rce1 inhib	PABP FP inh	eIF4H FP inh	UUG fidelity	CSC inhib	Env fusion inh	others
CC(OC(=O)c1snc(C(=O)NC2CCCCC2)c1N)C(=O)NC1CCCCC1 (configuration not stated)	4	2	i	8	-3	x	x	7
CC(C)Nc1nnc(SCC(=O)Nc2ccc(F)cc2)s1	5	-2	i	-3	-9	2	0	x
Cc1cc(CNC(=S)Nc2cccc(Cl)c2Cl)nn1C	-1	-7	i	-6	-7	x	-13	18
NC(=O)c1sc2nc3c(c(-c4ccccc4)c2c1N)CCC3	-3	-10	i	-4	0	-24	-6	103*
CC1CCN(C(=O)CSc2nnc(CNC(=O)c3c(F)cccc3F)o2)CC1	-1	3	i	-5	-29	3	-8	11
Cc1nc(-n2nnc3cc(C)c(C)cc32)c2c3c(sc2n1)CCCC3	-5	-3	i	-1	-6	-1	4	-47
COc1cccc2c1C(CO)N1C(C#N)C3CC(C(=O)O)C(C1C2)N3C (configuration not stated)	-33	-16	x	-8	-9	3	21	x
Cc1ccccc1OCCNc1cc(N2CCN(CCO)CC2)ccc1[N+](=O)[O-]	-2	-4	i	-4	7	x	14	x
Cc1ccc(OCC(=O)Nc2nnc(C3CCCO3)s2)c(Br)c1 (configuration not stated)	-1	6	i	5	3	x	-9	-26
N#CC1=C2SCN(c3ccccc3)CN2C(=O)CC1c1c(Cl)cccc1Cl (configuration not stated)	0	1	i	6	-2	-3	-8	-17
COc1ccc(/C=C/C(=O)NC(=S)NN2CCCCC2c2cccnc2)cc1OC (configuration not stated)	3	0	i	0	-10	x	0	7
COc1ccc(NC(=O)O/N=C/c2ccccc2)cc1	1	-3	i	2	0	-6	1	-68
CCCCN(C=O)c1c(CC)nc2c(OCc3ccccc3C(=O)OC)cccn12	-1	-2	x	x	x	-13	x	37
CC(C)c1nnc(SCc2ccc(CSc3nnc(C(C)C)n3N)cc2)n1N	2	3	i	15	1	-11	-8	x
CC1CCCCC1NC(=O)C1Cc2ccccc2CN1S(C)(=O)=O (configuration not stated)	4	5	i	12	-7	7	3	x
Cc1ccc(S(=O)(=O)N2[C@@H](c3ccccc3F)C(C(=O)O)=CC[C@H]2c2cccs2)cc1	1	5	x	x	x	13	-9	x
CC(C)(C)C(=O)Nc1cccc(C(=O)Nc2cc(C(=O)O)cc(C(=O)O)c2)c1	-6	4	i	5	-5	x	-10	x
Cc1cccc(-n2nnnc2SCC(=O)Nc2cccc(S(N)(=O)=O)c2)c1	2	-2	i	14	4	x	-8	-46
CCCC(c1nnnn1CCOC)N1CCN(c2cccc(OC)c2)CC1 (configuration not stated)	0	5	i	35	0	39	x	x
COc1ccc(N2CCN(C(=O)CSc3nnc(NC(=O)C4CC4)s3)CC2)cc1	5	3	i	0	1	x	7	0

Retrieved one by one from above:
SMILES	MT1-MMP act inh	MT1-MMP act inh RFP	Rce1 inhib	PABP FP inh	eIF4H FP inh	UUG fidelity	CSC inhib	Env fusion inh	others
Cc1nc(-n2nnc3cc(C)c(C)cc32)c2c3c(sc2n1)CCCC3	-5	-3	i	-1	-6	-1	4	-47
CC1CCCCC1NC(=O)C1Cc2ccccc2CN1S(C)(=O)=O (configuration not stated)	4	5	i	12	-7	7	3	x
COc1ccc(/C=C/C(=O)NC(=S)NN2CCCCC2c2cccnc2)cc1OC (configuration not stated)	3	0	i	0	-10	x	0	7

(cont.)
SMILES	MT1-MMP act inh	MT1-MMP act inh RFP	Rce1 inhib	PABP FP inh	eIF4H FP inh	UUG fidelity	CSC inhib	Env fusion inh	others
CCOc1cc(/C=N/NC(=O)c2cc(C)[nH]n2)ccc1OC(=O)c1ccc([N+](=O)[O-])cc1	x	x	i	-1	1	x	-12	x
O[C@H]1C[C@H](c2ccc(Cl)cc2)N(Cc2cccs2)C[C@@H]1n1cc(C2CC2)nn1	0	-4	x	x	x	7	x	-29
CCCCNC(=O)C(Sc1ccccc1)c1ccccc1 (configuration not stated)	2	1	i	-2	-7	6	1	x
CSCC[C@H](NC(=O)Nc1ccc(C)cc1)C(=O)O	8	1	i	9	6	-34	-6	-42
CN(C(=O)COC(=O)C1=COCCO1)c1c(N)n(Cc2ccccc2)c(=O)[nH]c1=O	-1	3	i	x	x	x	-7	-40
COC(=O)c1cc(OC(=O)CCc2ccc(OC)c(OC)c2)cc(C(=O)OC)c1	1	6	i	-1	-6	-10	-5	2
COc1ccc(C2CC(c3cccc(C(F)(F)F)c3)=NN2c2ccc(S(N)(=O)=O)cc2)cc1 (configuration not stated)	-3	-1	x	x	x	0	x	-7
Cc1ccc(S(=O)(=O)Nc2ccc(N3CCOCC3)nc2)cc1	-8	0	i	-10	u	x	3	5
Cc1ccc(C(=O)NC2CC(=O)N(c3ccc4c(c3)OCCO4)C2)cc1[N+](=O)[O-] (configuration not stated)	0	-3	i	x	x	-17	x	-2
NC(c1ccccc1)c1csc(Nc2cc(Oc3ccccc3)ncn2)n1 (configuration not stated)	-11	-13	x	x	x	-36	x	u
CC(=O)N/C(=C/c1ccc2c(c1)OCO2)C(=O)Nc1ccccc1	-6	2	i	12	2	x	-8	-11
Cc1ccc(CSCC(=O)NCc2ccco2)cc1	1	3	i	17	7	-7	-6	-3
Cc1ccc(S(=O)(=O)N2CC(O)C2)cc1	-1	1	i	x	x	1	-18	-8
CC(=O)OC1C(N2CCCCC2)c2c(ccc(/C=C/C(=O)N3CCCCC3)c2O)OC1(C)C (configuration not stated)	-1	1	i	6	-2	2	10	4
O=C(CN1CCCCC1)N1c2ccccc2CCc2ccccc21	2	3	x	3	-10	-15	-15	x
c1ccc(CN2CCOCC2)cc1	2	7	i	-1	-10	-13	-4	x
O=S(=O)(N/N=C/c1ccc(Cl)cc1)c1ccc(Cc2ncc(C(F)(F)F)cc2Cl)s1	-4	-2	i	11	-10	-10	-6	x
Cc1ccc(CNC(=O)COC(=O)c2cccnc2Cl)cc1	-5	0	x	x	x	-5	2	x
Cc1csc(=O)n1CC(=O)OCc1nnc(-c2ccc([N+](=O)[O-])cc2)o1	1	6	x	x	x	-18	x	-18
COc1cc2c(cc1OC)-c1cc(N3CCc4ccccc43)nc(=O)n1CC2	4	4	i	8	-13	x	5	11
O=C1CN(C(=O)c2cccc(Br)c2)c2ccccc2N1	-6	-5	i	4	-9	-19	35	-113
CCCC(=O)NC(Nc1ccccc1F)C(Cl)(Cl)Cl (configuration not stated)	x	x	i	2	-7	x	-8	x
COC(=O)c1cc(OC)c(OC)cc1NC(=O)Nc1cccc(C(C)=O)c1	5	6	x	-2	-9	-11	-3	10
CN(Cc1ccccc1)C(=O)c1[nH]c(C(F)(F)F)nc1-c1ccccc1	3	3	x	x	x	2	x	-81
COc1cccc(C(=O)Nc2ccc(N3CCCC3)cc2)c1	0	1	i	-3	-10	-18	2	x
COc1cc(NC(=O)c2ccc(-c3ccc(Br)cc3)o2)ccc1NC(=O)C(C)C	x	x	i	-4	-4	-12	-7	x
O=C(CSCc1cccc(CSCC(=O)Nc2ccccc2)n1)Nc1ccccc1	-1	-5	x	10	-4	x	-24	x
CC(C)Oc1ccc(C(=O)NC2(C(F)(F)F)NC(=O)N(CCCc3ccccc3)C2=O)cc1 (configuration not stated)	-3	-7	i	0	-3	12	31	7
Cc1ccc(S(=O)(=O)N2CCN(C(=O)Cn3cnc4c3c(=O)n(C)c(=O)n4C)CC2)cc1C	-7	0	x	x	x	5	1	x
O=C1CCN(Cc2cccnc2)CCN1[C@H](CO)Cc1ccccc1	6	6	i	-10	-6	-17	-3	-3
O=C(c1ccccc1)N1CCN(S(=O)(=O)N2CCCCCC2)CC1	0	1	i	10	-11	-14	x	4
C/C(=N\NC(=O)CNC(=O)c1ccncc1)c1ccc(C)cc1	-3	-2	i	6	-5	x	-10	-17
COc1cccc(C(=O)CC(=O)C(=O)Nc2ccc(C)cc2Cl)c1	-1	-1	i	-1	3	-21	8	23
O=C(O)CC/C(=C\c1cccc(NC(=O)c2ccccc2Cl)c1)c1nc2ccccc2s1	x	x	i	11*	58*	10	39	7	eIF4H FP inh retest=94*;PABP FP inh retest=77*
Cn1c(C(=O)NCC2CCCO2)cc2c(=O)n3ccccc3nc21 (configuration not stated)	17	5	i	u	u	-11	-17	-1
CCOC(=O)N/N=C/c1cc(C)n(-c2cccc3ccccc23)c1C	-5	-4	i	-4	6	-4	23	15
CCCc1cc(=O)[nH]c(SCc2nc3ccccc3o2)n1	11	3	i	2	0	x	-7	3
Cc1cccc(NS(=O)(=O)c2ccc3c(c2)oc(=O)n3C)c1C	2	3	i	-9	-4	0	-17	8
NNC(=O)c1cccc(COc2ccc3c(c2)CCC3)c1	3	5	i	10	12	x	-6	16
O=C(c1ccc(Cl)cc1)c1cc([N+](=O)[O-])ccc1N1CCOCC1	6	-15	i	-3	1	x	52	-53
O=C(CC1SC(=NCCc2ccccc2)N(/N=C/c2cccs2)C1=O)Nc1ccc(Cl)cc1 (configuration not stated)	0	2	i	-9	0	-23	18	-4
O=C(O)Cc1ccc2ocnc2c1	3	5	i	7	0	-17	-5	21
CNC(=S)c1cc(C(C)(C)C)c(O)c(C(C)(C)C)c1	6	-4	i	-11	-4	x	-26	4
CCC1SC2=NCN(c3ccccc3)CN2C1=O (configuration not stated)	x	x	i	-2	-4	x	-14	x
CC(C)c1ccc(NC(=O)NCc2ccc(F)cc2)cc1	1	-1	i	10	-5	x	-5	-5
COc1ccc(C2/C=C\CN(C(=O)c3ccc(C)cc3)[C@H](Cc3ccccc3)C(=O)N2Cc2ccc(F)cc2)cc1 (some centres not stated)	-8	-28	+	4	3	-13	29	x
CC1=C(C(=O)Nc2ccccc2)C(c2cccc([N+](=O)[O-])c2)Nc2nc3ccccc3n21 (configuration not stated)	-9	-4	i	-10	-9	-9	x	-59
Cc1ccc(C)c(S(=O)(=O)Nc2ccc(O)c3ccccc23)c1	13	-1	i	3	-2	-23	21	9
O=C(CNC(=O)c1ccc(F)cc1)N/N=C/c1cccnc1	1	5	i	7	3	-17	x	3
COC(=O)C1=C(C)N(Cc2ccco2)C(=O)/C1=C\c1ccc(N(C)C)cc1	-142	61	i	5	30	-18	-11	-95
O=C(C[n+]1ccccc1)Nc1cc(C(F)(F)F)ccc1Cl	-1	3	i	8	-9	-19	-8	-6
CCc1c(C)c2ccc(OC3CCCCC3=O)cc2oc1=O (configuration not stated)	4	0	i	3	5	-21	-6	-12
CCn1cc(C(=O)NCc2ccc(C)o2)c2cc(OC)c(OC)cc2c1=O	2	2	i	4	9	-10	-14	-70
O=[N+]([O-])c1ccccc1NCc1c(O)ccc2ccccc12	0	2	i	1	3	-12	-7	5
CN(c1ccc(C(=O)N2CCOCC2)cc1[N+](=O)[O-])C1CCCCC1	4	-4	i	-4	4	-15	-10	-61
COC(=O)c1cc(CNC(=O)c2ccc(O)c(Cl)c2)ccc1OC	0	-4	i	-1	1	x	-36	-13
O=C(COC(=O)COc1ccccc1)Nc1ccc2c(c1)OCCO2	0	1	x	x	x	-7	-1	x
CCCC(=O)N1CCN(c2ccc(NC(=O)c3ccco3)cc2)CC1	-4	-1	i	-4	-6	-6	-21	18
O=C(NCCc1nccs1)C1CCC(=O)N(Cc2cccc(C(F)(F)F)c2)C1 (configuration not stated)	-1	0	i	5	-9	-16	-10	x
COC(=O)CCCCCN1C(=O)NC(c2ccccc2)C(C(=O)OCc2ccccc2)=C1C (configuration not stated)	4	-2	i	-3	-7	28	-12	10
